rRNA inh HTS = selective bacterial rRNA inhibition in E. coli. E. coli WT GFP vs humanized-ribosome RFP mutants, fluorescence, 24 h; stronger effect = lower value; DMSO median 0, no signal -100. GFP signal change (wild-type ribosome), % (test concentration not listed). hit rate 1.6% among 350,000;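 active = significant combined selectivity score with lowered wild-type GFP, culture density cut under 30%, mutant RFP and density less affected; inactive = any of these conditions unmet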; note: one replicate is shown; some compounds called inactive have numbers as strong as hits
AF4-AF9 inh = blocks AF4 peptide binding to human AF9; P42568; AlphaScreen, biotin-AF4 peptide binding to FLAG-AF9; inhibition, % at 10 µM; hit rate 0.47% among 350,000; AID 651704;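 active = every replicate reaching a set inhibition limit, whatever the replicate mean, cut at about 25% in these data; inconclusive = mean inhibition reaches that limit but some replicates miss it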;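 note: 0% = plate neutral control median and 100% = total signal loss; the record names both 10 and 1 µM as test concentration; the first replicate is given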
Target sequence (P42568 whole entry, looked up): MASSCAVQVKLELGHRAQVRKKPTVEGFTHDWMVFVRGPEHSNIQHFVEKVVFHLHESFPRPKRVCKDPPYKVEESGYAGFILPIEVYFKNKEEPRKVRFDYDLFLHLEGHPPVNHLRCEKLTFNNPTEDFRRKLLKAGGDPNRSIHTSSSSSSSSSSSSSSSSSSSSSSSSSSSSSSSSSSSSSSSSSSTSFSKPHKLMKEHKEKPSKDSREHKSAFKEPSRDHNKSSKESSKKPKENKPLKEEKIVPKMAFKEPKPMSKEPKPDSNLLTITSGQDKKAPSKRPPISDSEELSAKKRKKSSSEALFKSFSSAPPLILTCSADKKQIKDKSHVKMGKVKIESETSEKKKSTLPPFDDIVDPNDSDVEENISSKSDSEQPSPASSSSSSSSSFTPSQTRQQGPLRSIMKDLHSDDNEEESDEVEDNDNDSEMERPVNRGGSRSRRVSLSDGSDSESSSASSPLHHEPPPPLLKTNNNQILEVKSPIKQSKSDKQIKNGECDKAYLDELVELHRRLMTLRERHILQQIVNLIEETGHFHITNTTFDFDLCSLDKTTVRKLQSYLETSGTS
Beta cell apopt = beta cell apoptosis inhibition | INS-1E cytokine-induced death, ATP luminescence, 48 h; percent of positive-control rescue, neutral wells zero | protection from apoptosis, % (concentration not given with the values) | hit rate 0.8% among 300,000 | AID 435005;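 active = all replicates at 75% or more, or half of them and the mean; inconclusive = half reach 75% but not the mean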;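 note: 0% = cytokine-treated negative control wells and 100% = positive control rescue; higher means more ATP so stronger rescue from cytokine killing; wells of about 40 µL received 100 nL stock; the first replicate is given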
T cruzi repl = T. cruzi replication inhibition | T. cruzi beta-gal in NIH3T3, luminescence, 90 h | inhibition, % (test concentration not listed) | hit rate 1.4% among 300,000;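 active = mean inhibition across valid replicates above about 55%, limit read from the data; inconclusive = mean below that limit but half or more replicates reach it; inactive = mean below it, under half of replicates reach it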;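 note: signal also drops with host cell toxicity which is not excluded here; 0% = plate median of DMSO wells and 100% = zero luminescence signal; higher percent means less beta-gal luminescence so fewer parasites; stock transfer was 50 nL into about 50 µL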
FGF22 binding = binders of recombinant human FGF22 by thermal shift; SYPRO orange fluorescence; percent of sucrose octasulfate shift, DMSO zero; AID 651658; calls only at 9.99 µM; hit rate 1.5% among 340,000; Q9HCT0;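 active = melting point raised past a set limit in the mean and every replicate; inconclusive = no clear call; three in four hits are not shown here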
Target sequence (Q9HCT0 whole entry, looked up): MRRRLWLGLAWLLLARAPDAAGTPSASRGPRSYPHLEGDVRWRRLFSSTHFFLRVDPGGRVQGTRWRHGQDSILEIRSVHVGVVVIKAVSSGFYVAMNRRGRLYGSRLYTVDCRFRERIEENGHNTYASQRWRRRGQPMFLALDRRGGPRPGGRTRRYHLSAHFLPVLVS
ALR inh = blocks human ALR sulfhydryl oxidase activity; hit rate 3.8% among 290,000; AID 485317; inhibition, % (test concentration not listed); purified ALR, DTT oxidation, H2O2 HRP-luminol luminescence; P55789;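 active = mean and each replicate at 75% or more; inconclusive = only one of the two met; inactive = neither met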;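 note: stock transfer was 7.5 nL into about 7.5 µL; 0% = neutral wells and 100% = wells with inactivated enzyme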
Target sequence (P55789 whole entry, looked up): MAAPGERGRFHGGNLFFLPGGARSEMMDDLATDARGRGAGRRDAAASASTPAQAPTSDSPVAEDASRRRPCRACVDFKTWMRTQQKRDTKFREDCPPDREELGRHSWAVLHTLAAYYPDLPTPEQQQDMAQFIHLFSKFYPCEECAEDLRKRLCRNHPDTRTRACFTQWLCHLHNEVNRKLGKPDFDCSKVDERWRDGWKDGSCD
Calb FLC = affects C. albicans growth with fluconazole; C. albicans CaCi-2 (fluconazole-resistant clinical isolate) + fluconazole, Alamar Blue growth, 48 h; growth inhibition, % (no concentration beside the values); hit rate 0.57% among 300,000;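 active = most replicates above 75%; inconclusive = exactly half above 75%; inactive = most below 75%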;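 note: all wells also contain fluconazole at 8 µg/ml as a sub-toxic cotreatment; 0% = median of DMSO wells and 100% = median of geldanamycin control wells; wells of about 8 µL received 7.5 nL stock; the first replicate is given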
RanGTP-Imp inh = inhibitors of RanGTP-importin-beta interaction, primary screen, biochemical, FRET, CFP-Ran, YFP-importin-beta, homogeneous; cell-free CFP-Ran/YFP-importin-beta FRET ratio; inhibition, % (no concentration beside the values); hit rate 1.1% among 300,000; AID 2216;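 active = most replicates above 15%; inconclusive = exactly half above 15%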;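 note: 0% = DMSO wells and 100% = Ran loaded with GDP instead of GTP; wells of about 40 µL received 100 nL stock; the first replicate is given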
rRNA inh HTS OD600 = second read-out of rRNA inh HTS, no call of its own (marks repeat the call); OD600 change, %; measured here: OD600 growth;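 optical density of the mix in the first replicate; 0 = DMSO median and -100 = no signal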
rRNA inh HTS RFP = also measured in rRNA inh HTS; calls as there; RFP signal change, %; measured here: RFP humanized mutant strains;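 first replicate; 0 = DMSO median and -100 = no signal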
An asterisk follows results filed as active; i = inactive; ? = inconclusive; / = not tested or not shown; & = joins results of further samples. An excerpt; rates above refer to the full screens.

SMILES | rRNA inh HTS | rRNA inh HTS OD600 | rRNA inh HTS RFP | AF4-AF9 inh | Beta cell apopt | T cruzi repl | FGF22 binding | ALR inh | Calb FLC | RanGTP-Imp inh
CCc1noc(C)c1C(=O)N1CCCC(N2CCN(c3ccccc3F)CC2)C1 (centres undefined) | 4 | 8 | -3.4 | -1.4 | -7 | -5 | i | 1 | 8 | 7.2
CCn1c(SC)nnc1-c1sc2cc(Cl)ccc2c1Cl | / | / | / | / | 7 | 24 | / | 0 | -7 | 2.5
Cc1ccc(S(=O)(=O)O/N=C2\CCCc3ccccc32)cc1 | / | / | / | / | -7 | -7 | / | -54 | 0 | 7.0
COc1cc(C(=O)N(C)Cc2cccc(OC)c2OC)ccc1OCC(=O)Nc1cccc(C(F)(F)F)c1 | 0 | 2 | 0.5 | -2.7 | 17 | 25 | i | -114 | -9 | -1.0
CC1CCCC(C)N1C(=O)Cn1c(=O)sc2ccccc21 (centres undefined) | 12 | 7 | -1.7 | 0.0 | -10 | -2 | i | -10 | -11 | -1.7
CC(C)CCN(C(=O)c1ccc(Br)cc1)c1c(N)n(Cc2ccccc2)c(=O)[nH]c1=O | 12 | 23 | -0.5 | -0.9 | -2 | / | i | -4 | / | /
COc1cccc(OCC(O)CN2CCN(c3ncccn3)CC2)c1 (centres undefined) | 8 | 11 | -6.8 | 6.7 | -5 | -7 | i | -10 | ? | 0.2
CC(C)(C)OC(=O)N1CCC(c2c(C(=O)N3CCN(C(=O)c4ccco4)CC3)cnn2-c2cccc(Cl)c2)CC1 | 3 | -1 | 2.0 | 0.0 | 0 | 19 | / | 0 | 0 | -0.8
CCOc1ccccc1-n1ccn(CC(=O)Nc2ccc(Br)cc2F)c(=O)c1=O | 8 | 11 | -1.9 | -5.6 | / | 3 | i | / | -4 | 1.5
CC(=O)c1c(C)[nH]c(C(=O)OCC(=O)c2c(N)n(CC(C)C)c(=O)n(C)c2=O)c1C | 7 | 12 | 1.4 | -0.5 | -4 | / | i | -2 | / | /
O=C(c1ccccc1)c1cc2ccc(O)cc2oc1=O | / | / | / | / | -3 | -16 | / | 11 | -6 | 27*
COC(=O)c1cccc(S(=O)(=O)N(Cc2ccco2)Cc2cc3cc(OC)c(OC)cc3[nH]c2=O)c1 | / | / | / | / | -1 | -1 | / | -12 | 9 | -0.7
CCCCC1(C)OC(=O)C(=Cc2c[nH]c3ccccc23)C(=O)O1 (centres undefined) | 6 | 13 | 3.1 | 0.1 | -3 | -2 | i | 4 | -2 | 1.8
C[N+]12CCC(CC1)C(OC(=O)C(O)(c1ccccc1)c1ccccc1)C2 (centres undefined) | 5 | 12 | 0.4 | -2.6&-2.5 | 4 | -6 | i | / | / | 1.7
NS(=O)(=O)c1ccc(CCNC(=O)CCNS(=O)(=O)c2ccccc2C(F)(F)F)cc1 | -2 | 7 | -0.3 | -1.8 | -4 | / | i | -3 | / | /
O=C(CSc1nnc(-c2cccnc2)n1Cc1ccccc1)NCc1ccco1 | 9 | -5 | 0.8 | -1.6 | -1 | -6 | i | 3 | 19 | 0.2
O=C(N/N=C/c1ccoc1)c1ccccc1 | 2 | 10 | -3.4 | -0.8 | -3 | -11 | i | -4 | 3 | -2.8
CC(=O)Nc1ccc(S(=O)(=O)N(C)CC(=O)OCC(=O)N2CCCCC2)cc1 | 4 | 8 | -1.0 | -1.0 | -4 | 4 | i | -6 | 1 | 1.7
O=C(NCCNS(=O)(=O)c1ccccc1Cl)c1cc(OCC(F)(F)F)ccc1OCC(F)(F)F | / | / | / | / | -7 | -8 | / | -10 | ? | 0.3
CC1(C)NC(=O)N(CCCCOc2ccc(Cl)cc2)C1=O | / | / | / | / | 5 | -8 | / | 2 | -17 | -1.3
Cc1ccc(S(=O)(=O)n2ccc3c(OCCOCCNCc4ccc(F)cc4)cccc32)cc1 | -58 | -83 | -18 | 2.8 | 30 | 55* | i | -2 | 1 | 2.0
CCCCSc1nc(NCc2ccco2)c2c3c(sc2n1)COC(C)(C)C3 | / | / | / | / | -4 | 36 | / | 5 | 1 | -2.5
O=C(O)CCC(CNS(=O)(=O)c1ccccc1)C(F)(F)F (centres undefined) | 5 | 10 | -1.3 | -2.0 | -9 | -8 | i | -21 | 4 | -0.6
CC(=O)c1ccc(OCC(O)CN2CCN(CCN3C(=O)c4cccc5cccc(c45)C3=O)CC2)cc1 (centres undefined) | / | / | / | / | 63 | 9 | / | -22 | -21 | -2.9
O=Cc1ccc2c(c1)CCN2Cc1ccccc1 | -19* | -5.9* | -0.3* | 5.1 | -24 | -21 | i | / | -2 | -0.4
COc1ccc2nc(NC(=O)CS(=O)(=O)Cc3ccccc3)sc2c1 | 4 | 9 | 4.8 | -0.4 | -3 | 2 | i | 0 | 57 | 6.5
Cc1cccc(-n2ncc3c(N4CCC5(CC4)OCCO5)ncnc32)c1 | 3 | 0 | -1.9 | -6.4 | 1 | 4 | i | -6 | 12 | -2.3
Clc1ccc(C2CSc3c4ncnc-4ncn32)cc1 (centres undefined) | -2 | -4 | -0.1 | 4.5 | -6 | -3 | i | -8 | -3 | 0.8
CC(=O)Nc1ccc(SCC(=O)N(C)C2CCS(=O)(=O)C2)cc1 (centres undefined) | -3 | -4 | -0.6 | -1.2 | 0 | -7 | i | 98* | 4 | -0.8
NC(=O)CSc1nnc(COc2ccccc2)n1Cc1ccco1 | 17 | 6 | 0.2 | -1.5 | -2 | -5 | i | -5 | 4 | -1.0
CSCCC(NC(=O)c1cccc([N+](=O)[O-])c1)C(=O)O (centres undefined) | / | / | / | / | -3 | 0 | / | / | -3 | 2.0
O=C(Nc1ccc(N2CCOCC2)c(S(=O)(=O)Nc2ccccc2Cl)c1)c1ccc(F)cc1 | 2 | -12 | -0.6 | -0.6 | 13 | / | i | 2 | / | /
CN(CC(=O)OCC(=O)NCc1ccccc1)S(=O)(=O)c1ccc(F)cc1 | 4 | 10 | 2.4 | 0.4 | 5 | / | i | 2 | / | /
Cc1c(NC(=O)Cc2ccccc2)cccc1C(=O)NN1C(=O)c2ccccc2C1=O | 15 | 10 | 1.7 | -15 | -7 | -23 | i | -13 | -4 | 6.6
O=C(Cn1cccc1C(=O)c1ccccc1)NCc1cccnc1 | / | / | / | / | -5 | 0 | / | -34 | 7 | -2.9
Cc1cc(NS(=O)(=O)c2ccc(Cl)cc2)nn1CC(=O)NCc1ccco1 | / | / | / | / | / | 3 | / | -1 | -3 | 3.7
CCOCCc1nnc(NC(=O)c2cc(OC)c(OC)c(OC)c2)s1 | / | / | / | / | 7 | -4 | / | 0 | -4 | 3.8
CN(C)C1(CNC(=O)Nc2ccccc2)CCCCC1 | 3 | 17 | -2.8 | -0.6 | / | -5 | / | 0 | 4 | 5.1
Cc1nc(C)c(C(=O)N2CCCC(C(=O)c3ccc4ccccc4c3)C2)s1 (centres undefined) | -12 | -19 | -0.7 | -1.1 | -4 | -11 | i | -1 | -5 | 3.5
O=C(C1CCN(c2ncnc3c2nc2n3CCCCC2)CC1)N1CCCCC1 | -3 | -10 | -0.7 | 0.6 | 3 | -18 | i | -2 | 1 | 1.3
O=C(Cc1ccccc1)Nc1cccc(C(=O)O)c1O | 9 | 6 | -0.4 | -7.1 | -8 | -14 | i | -9 | 8 | ?
CCc1c(C)nn(C(=O)/C(C#N)=C\N(C)C)c1C | 10 | 1 | -1.5 | -1.6 | -5 | 1 | i | 3 | 0 | 3.5
O=C(c1ccc([N+](=O)[O-])cc1)N1CCN(c2ncc(Br)cn2)CC1 | 28 | 34 | 2.1 | -3.1 | -6 | -2 | i | 3 | -4 | -0.4
COc1cc(C2Nc3cc(Cl)c(S(N)(=O)=O)cc3S(=O)(=O)N2)cc(OC)c1OC (centres undefined) | / | / | / | / | -7 | -3 | / | -3 | 0 | -1.0
CN1C2=C(C(=O)CC(C)(C)C2)C(c2cccs2)C2=C1CC(C)(C)CC2=O | -5 | -7 | 2.8 | 2.8 | -2 | 10 | i | -7 | -2 | 61*
CC(=O)NCC(=O)N(C)C(C(=O)Nc1ccc2c(c1)OCCO2)c1ccccc1 (centres undefined) | / | / | / | / | -11 | -10 | / | -2 | 2 | 3.7
CN1CCCN(C(=O)/C=C/c2ccc(F)cc2)CC1 | / | / | / | / | -4 | -1 | / | -13 | -11 | -1.8
O=C(CNS(=O)(=O)c1ccc([N+](=O)[O-])cc1)N/N=C\c1ccc(O)cc1 | 7 | 12 | 2.5 | 2.3 | 0 | -13 | i | 99* | -1 | -0.5

Structures above that have an NH in an aromatic ring, in the order listed:
SMILES | rRNA inh HTS | rRNA inh HTS OD600 | rRNA inh HTS RFP | AF4-AF9 inh | Beta cell apopt | T cruzi repl | FGF22 binding | ALR inh | Calb FLC | RanGTP-Imp inh
CC(C)CCN(C(=O)c1ccc(Br)cc1)c1c(N)n(Cc2ccccc2)c(=O)[nH]c1=O | 12 | 23 | -0.5 | -0.9 | -2 | / | i | -4 | / | /
CC(=O)c1c(C)[nH]c(C(=O)OCC(=O)c2c(N)n(CC(C)C)c(=O)n(C)c2=O)c1C | 7 | 12 | 1.4 | -0.5 | -4 | / | i | -2 | / | /
COC(=O)c1cccc(S(=O)(=O)N(Cc2ccco2)Cc2cc3cc(OC)c(OC)cc3[nH]c2=O)c1 | / | / | / | / | -1 | -1 | / | -12 | 9 | -0.7
CCCCC1(C)OC(=O)C(=Cc2c[nH]c3ccccc23)C(=O)O1 (centres undefined) | 6 | 13 | 3.1 | 0.1 | -3 | -2 | i | 4 | -2 | 1.8

Further structures
SMILES | rRNA inh HTS | rRNA inh HTS OD600 | rRNA inh HTS RFP | AF4-AF9 inh | Beta cell apopt | T cruzi repl | FGF22 binding | ALR inh | Calb FLC | RanGTP-Imp inh
COc1ccc(OC)c(NCc2nnc(-c3ccccc3)o2)c1 | 2 | 1 | -3.2 | 10 | / | 4 | i | 99* | 1 | 0.7
COc1ccc(-c2cn(CCO)c(-c3ccc(Cl)nc3)n2)cc1 | 1 | -6 | 0.1 | / | -5 | / | i | 51 | / | /
CCCN1C(=O)/C(=C/c2ccc(OCc3ccc(C(=O)O)cc3)c(OC)c2)NC1=S | -29 | -25 | -7.5 | 3.7 | -8 | / | i | 92* | -31 | 8.4
Cc1cccc(NC(=O)NCC(c2ccc(F)cc2)N2CCN(C)CC2)c1 (centres undefined) | -2 | -1 | -3.6 | 2.6 | -1 | 16 | i | 1 | 0 | -2.2
CSc1ccc(CN2CCc3c([nH]c4ccccc34)C2)cc1 | 7 | -2 | 3.0 | 7.8 | 6 | 18 | i | -7 | -20 | 2.2

An excerpt from above in order of SMILES length, rising:
SMILES | rRNA inh HTS | rRNA inh HTS OD600 | rRNA inh HTS RFP | AF4-AF9 inh | Beta cell apopt | T cruzi repl | FGF22 binding | ALR inh | Calb FLC | RanGTP-Imp inh
COc1ccc(-c2cn(CCO)c(-c3ccc(Cl)nc3)n2)cc1 | 1 | -6 | 0.1 | / | -5 | / | i | 51 | / | /
CCCN1C(=O)/C(=C/c2ccc(OCc3ccc(C(=O)O)cc3)c(OC)c2)NC1=S | -29 | -25 | -7.5 | 3.7 | -8 | / | i | 92* | -31 | 8.4
O=C(CNS(=O)(=O)c1ccc([N+](=O)[O-])cc1)N/N=C\c1ccc(O)cc1 | 7 | 12 | 2.5 | 2.3 | 0 | -13 | i | 99* | -1 | -0.5

Compound activity deposited in PubChem by Broad Institute.
